# Assay outcomes as filed in PubChem BioAssay.
# LANA-H2A inh – blocks KSHV LANA binding to histone H2A/H2B | Q9QR71 | cell-free LANA-H2A/H2B peptide, fluorescence polarization | inhibition, % (no concentration beside the values) | 320,000 tested, 0.6% active | AID 2629; in the data active means inhibition mostly above about 10%, no sharp cut-off; inactive means mostly below about 6.7%;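 further: stock transfer was 7.5 nL into about 10 µL; 0% = median of vehicle wells and 100% = median of positive control wells; one replicate is shown; the record names a cut of 25% in any replicate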
# UCH37 inh – inhibitors of human deubiquitinating enzyme UCH37. inhibition, % (no concentration beside the values). 330,000 tested, 0.33% active. Q9Y5K5. purified proteasome/UCH37, Ub-AMC cleavage fluorescence;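 active means mean of two replicates above 20%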;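 further: 0% = compound-free wells with enzyme and 100% = wells lacking proteasome; stock transfer was 100 nL into about 20 µL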
#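 Assay system: Proteasome-bound UCH37. Buffer or medium: pH 7.4 Tris-HCl (50 mM) with ovalbumin, ATP-MgCl2, DTT. Incubation: 30 min preincubation with enzyme, 25 min cleavage at room temperature. Measured by: fluorescence, ex 355 nm, em 460 nm. Read-out basis: percent inhibition. Control set: wells without proteasome as full block, compound-free enzyme plus substrate as uninhibited.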
# E coli growth – inhibitors of Escherichia coli growth; 330,000 tested, 0.21% active; OD600, 23 h; hits give low values; AID 1053175; OD600 absorbance (concentration not given with the values);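 active means OD600 absorbance below the run mean of sample wells minus 3.6 SD, in any replicate, cut at about 0.56 in these data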;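 further: stock transfer was 300 nL into about 60 µL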
# HNF4A DNA FP – change in binding of human HNF4 alpha to DNA; P41235; HNF4a-FITC DNA binding, fluorescence polarization, 1 h; activity change, % at 10 µM; 360,000 tested, 0.3% active; AID 1224865; in the data active means activity change above about 30%, passing the limit was not always enough;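 further: controls were the assay level and a saturating level of protein; the project sought stronger binding though the title names inhibitors; some compounds called inactive have numbers as strong as hits; positive values seem to mean higher polarization but the record does not say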
# ALR H2O2 inh – human ALR oxidase inhibition via reduced H2O2; purified ALR, DTT oxidation, H2O2 HRP-luminol luminescence; inhibition, % (no concentration beside the values); 290,000 tested, 3.8% active; AID 485317;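 active means mean and each replicate at 75% or more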;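 further: stock transfer was 7.5 nL into about 7.5 µL; 0% = neutral wells and 100% = wells with inactivated enzyme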
# Target sequence (P55789 whole entry, looked up): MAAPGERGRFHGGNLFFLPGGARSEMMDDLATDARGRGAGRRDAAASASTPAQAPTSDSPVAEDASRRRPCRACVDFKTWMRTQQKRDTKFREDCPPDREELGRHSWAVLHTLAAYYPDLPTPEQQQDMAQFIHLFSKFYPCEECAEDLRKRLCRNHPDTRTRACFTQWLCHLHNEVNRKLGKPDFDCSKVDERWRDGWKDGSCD
# FGF22 binding – binders of recombinant human FGF22 by thermal shift; Q9HCT0; SYPRO orange fluorescence; percent of sucrose octasulfate shift, DMSO zero; calls only at 9.99 µM; 340,000 tested, 1.5% active; AID 651658;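 active means melting point raised past a set limit in the mean and every replicate; three in four hits are not shown here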
# Target sequence (Q9HCT0 whole entry, looked up): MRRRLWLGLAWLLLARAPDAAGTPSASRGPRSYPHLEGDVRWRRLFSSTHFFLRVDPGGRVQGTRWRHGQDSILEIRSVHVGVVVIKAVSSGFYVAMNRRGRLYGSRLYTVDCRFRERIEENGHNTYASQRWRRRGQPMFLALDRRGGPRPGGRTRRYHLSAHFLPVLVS
# Beta2AR agonist – human beta-2 adrenergic receptor agonism by FAP; response, % (no concentration beside the values); 340,000 tested, 0.43% active; Am2.2-beta2AR cells, FAP receptor internalization, flow cytometry; reference of the scale not given here; P07550; AID 504454;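 active means response above a set limit, near 3 SD of response in nonfluorescent compounds, cut at about 42% in these data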;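 further: stock transfer was 100 nL into about 11 µL; a reference agonist was the positive control; negative values mostly stem from fluorescent compounds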
# Target sequence (P07550 whole entry, looked up): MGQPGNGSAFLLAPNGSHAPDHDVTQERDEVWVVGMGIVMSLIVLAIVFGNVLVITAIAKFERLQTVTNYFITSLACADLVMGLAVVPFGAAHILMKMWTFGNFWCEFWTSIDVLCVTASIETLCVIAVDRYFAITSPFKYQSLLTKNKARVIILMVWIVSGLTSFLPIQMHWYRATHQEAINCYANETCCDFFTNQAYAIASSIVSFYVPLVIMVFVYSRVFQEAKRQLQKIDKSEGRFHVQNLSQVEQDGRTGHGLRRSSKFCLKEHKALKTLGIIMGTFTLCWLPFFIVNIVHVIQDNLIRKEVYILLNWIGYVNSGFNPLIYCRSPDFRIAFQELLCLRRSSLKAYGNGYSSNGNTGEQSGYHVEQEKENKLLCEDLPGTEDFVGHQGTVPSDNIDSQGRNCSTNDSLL
# * marks the source's active call; other numbers are inactive results; i = inactive; x = not tested or not shown.
SMILES,LANA-H2A inh,UCH37 inh,E coli growth,HNF4A DNA FP,ALR H2O2 inh,FGF22 binding,Beta2AR agonist
O=C(Nc1ccc(N2C(=O)C3C4C=CC(C4)C3C2=O)cc1)Nc1cccnc1 (stereo unspecified),1.0,-1.8,0.74,1.6,-6,x,7
COc1ccc(CCNC(=O)C2CCC(CNS(=O)(=O)c3ccc(F)cc3)CC2)cc1OC (stereo unspecified),3.8,3.7,0.73,-0.7,0,i,-1
O=C(O)CC(NC(=O)C1c2ccccc2Oc2ccccc21)c1ccc(Cl)cc1 (stereo unspecified),-3.1,2.0,0.73,0.0,-13,i,0
Cn1cnnc1SCC(=O)c1cc2ccccc2oc1=O,-0.3,4.3,0.7,-1.3,41,i,3
Cc1cccc(N2CCN(C(=O)C(Cc3ccccc3)n3cccc3)CC2)c1C (stereo unspecified),-0.9,6.0,0.72,2.2,24,i,26
CN(Cc1cccc(F)c1)C(=O)c1ccc2c(=O)n3c(nc2c1)CCC3,-3.3,1.1,0.71,3.0,-3,i,-2
O=C(NCCC(=O)N1CCCC1)c1ccccc1Cl,5.5,-0.9,0.73,0.5,-18,i,3
O=C(NCc1cccnc1)c1cccs1,-4.0,0.8,0.71,-3.8,x,i,-3
CCOC(=O)c1[nH]c(C)c(C(=O)c2ccc(C)cc2)c1C,7.4,1.0,0.7,0.5,-6,x,6
CC(C)(C)OC(=O)C[C@H]1C/C=C\C[C@H](CC(=O)N(CCO)Cc2ccccc2)C(=O)N2CCC[C@H]2COC1=O,-2.3,-4.9,x,1.9,-1,i,-4
C#CCN1C=CC(=O)[C@@H](O)[C@H]1c1ccccc1Br,x,x,x,-0.6,x,i,-2
Cn1c(=O)c2c(nc(N3CCOCC3)n2CCNC2=NCCC2)n(C)c1=O,-1.4,3.3,0.66,1.2,-17,x,-1
C/C(=N\OC(=O)c1ccc(OC(C)C)cc1)c1ccc(C)c(C)c1,-6.1,x,x,-8.0,-16,x,-2
COc1cccc(/C=N/n2cnc3cc(C)c(C)cc32)c1OC,7.5,x,x,-3.6,-8,i,0
Cc1ccc(-c2cc(C(F)F)nc3sc4c(=O)[nH]cnc4c23)cc1,0.9,-191,0.72,8.4,1,x,9
CC1CCN(C(=O)C2CCN(c3ncnc4c3nc3n4CCCCC3)CC2)CC1,1.0,3.0,0.68,2.8,0,i,-5
Cc1cccc(N2CCN(C(=O)c3cccc(S(=O)(=O)N4CCOCC4)c3)CC2)c1C,x,4.0,0.68,0.5,x,i,0
Cn1c(=O)c2sccc2n2c(CCCC(=O)Nc3ccc(F)cc3F)nnc12,4.2,5.5,0.7,-0.3,-20,i,-5
CC(NC(=O)c1ccccc1F)c1nnc(SCC(=O)NC2CCCCC2)n1C (stereo unspecified),5.1,5.7,0.67,3.2,-6,i,-10
Cc1ccc(OCC(=O)Nc2ccccc2-c2ccccc2)cc1,1.6,2.7,0.69,3.8,1,x,8
COc1cccc(-n2c(Cc3cc(=O)[nH]c(=O)[nH]3)nnc2SCC(=O)Nc2ccccc2)c1,6.2,2.6,0.68,-4.4,-22,i,4
CCOc1cc(C(=O)OC(C)C(=O)Nc2ccccc2OC)ccc1OCC(=O)N1CCOCC1 (stereo unspecified),x,5.1,0.69,1.1,x,i,23
O=c1nc(SCc2c(F)cccc2Cl)nc(-c2ccccc2)[nH]1,-0.3,3.7,0.73,x,-5,i,x
CC(C(=O)N1CCN(c2ccccc2)CC1)c1ccc([N+](=O)[O-])cc1 (stereo unspecified),0.0,1.9,0.63,-2.2,x,i,6
O=C(CSc1nccn1-c1ccccc1)NCc1ccc2c(c1)OCO2,-1.2,1.5,0.79,-1.4,-6,x,-7
O=C1NC2=C(C(=O)CCC2)C(c2ccc(OC(F)F)cc2)N1 (stereo unspecified),-4.4,-0.6,0.64,5.0,-17,i,-10
CC(=O)c1c(C)[nH]c(C(=O)Nc2ccc(C)c(C)c2)c1C,-4.4,3.1,0.66,-0.1,50,x,4
COc1ccccc1CNC(=O)CN(CCc1ccccc1)S(C)(=O)=O,2.3,1.7,0.66,-9.8,1,x,9
Oc1ccc(N2CCN(C(c3cccs3)c3nnnn3CCc3ccccc3)CC2)cc1 (stereo unspecified),4.7,1.8,0.69,-2.0,96*,x,1
COc1cc2c3c(c1)C(C)=CC(C)(C)N3C(=O)C2=O,3.1,4.2,0.71,-2.4,x,i,4

# Already shown: 14 of the compounds above.
SMILES,LANA-H2A inh,UCH37 inh,E coli growth,HNF4A DNA FP,ALR H2O2 inh,FGF22 binding,Beta2AR agonist
CC1CCN(C(=O)C2CCN(c3ncnc4c3nc3n4CCCCC3)CC2)CC1,1.0,3.0,0.68,2.8,0,i,-5
Cc1cccc(N2CCN(C(=O)c3cccc(S(=O)(=O)N4CCOCC4)c3)CC2)c1C,x,4.0,0.68,0.5,x,i,0
Cn1c(=O)c2sccc2n2c(CCCC(=O)Nc3ccc(F)cc3F)nnc12,4.2,5.5,0.7,-0.3,-20,i,-5
CC(NC(=O)c1ccccc1F)c1nnc(SCC(=O)NC2CCCCC2)n1C (stereo unspecified),5.1,5.7,0.67,3.2,-6,i,-10
Cc1ccc(OCC(=O)Nc2ccccc2-c2ccccc2)cc1,1.6,2.7,0.69,3.8,1,x,8
COc1cccc(-n2c(Cc3cc(=O)[nH]c(=O)[nH]3)nnc2SCC(=O)Nc2ccccc2)c1,6.2,2.6,0.68,-4.4,-22,i,4
CCOc1cc(C(=O)OC(C)C(=O)Nc2ccccc2OC)ccc1OCC(=O)N1CCOCC1 (stereo unspecified),x,5.1,0.69,1.1,x,i,23
O=c1nc(SCc2c(F)cccc2Cl)nc(-c2ccccc2)[nH]1,-0.3,3.7,0.73,x,-5,i,x
CC(C(=O)N1CCN(c2ccccc2)CC1)c1ccc([N+](=O)[O-])cc1 (stereo unspecified),0.0,1.9,0.63,-2.2,x,i,6
O=C(CSc1nccn1-c1ccccc1)NCc1ccc2c(c1)OCO2,-1.2,1.5,0.79,-1.4,-6,x,-7
O=C1NC2=C(C(=O)CCC2)C(c2ccc(OC(F)F)cc2)N1 (stereo unspecified),-4.4,-0.6,0.64,5.0,-17,i,-10
CC(=O)c1c(C)[nH]c(C(=O)Nc2ccc(C)c(C)c2)c1C,-4.4,3.1,0.66,-0.1,50,x,4
COc1ccccc1CNC(=O)CN(CCc1ccccc1)S(C)(=O)=O,2.3,1.7,0.66,-9.8,1,x,9
Oc1ccc(N2CCN(C(c3cccs3)c3nnnn3CCc3ccccc3)CC2)cc1 (stereo unspecified),4.7,1.8,0.69,-2.0,96*,x,1

# Later entries
SMILES,LANA-H2A inh,UCH37 inh,E coli growth,HNF4A DNA FP,ALR H2O2 inh,FGF22 binding,Beta2AR agonist
CCOCCc1nnc(N)s1,0.3,-0.6,0.67,-1.1,0,i,4
COc1ccccc1CCN1C(=S)NC(C)(C)CC1(C)O (stereo unspecified),-3.6,1.0,0.74,0.2,3,x,-1
Cc1cc(CN2CCOCC2)c(O)c(C2(C)CCCCC2)c1,-0.8,2.0,0.78,0.8,4,x,0
CN(C)C(=S)Nc1cccc(C(F)(F)F)c1,3.8,1.2,0.61,0.5,-31,i,4
COc1ccc(-c2csc3ncnc(Sc4nnnn4C)c23)cc1,-1.0,3.6,0.76,0.3,5,i,1
Cc1ccccc1CN(C)c1ccc(S(=O)(=O)N2CCN(C)CC2)cn1,-3.8,0.9,0.65,1.6,-2,i,4
CC(C)CC(=O)Nc1ccc(N2CCN(S(C)(=O)=O)CC2)cc1,0.7,3.1,0.71,0.9,-3,x,6
COc1cccc(C(=O)Nc2ccc(NC(=O)c3ccco3)cn2)c1,1.2,-0.4,0.67,0.3,-19,x,-20
CN(Cc1ccsc1)C(=O)Cn1cc(Br)ccc1=O,1.1,3.1,0.62,1.9,-6,i,4
CN(C)c1ncccc1-c1nc2ccccc2s1,-0.1,-311,0.65,3.2,-4,i,-6
CC(O)[C@H]1CNC(=O)C(=O)N1CC(C)(C)C (stereo partly specified),-1.6,1.4,x,-2.4,-19,i,-3
Cc1ccccc1OCC(=O)NN1CCN(C)CC1,0.8,4.1,0.69,1.4,x,i,1
FC(F)(F)c1nnc2c3ccccc3c(Cl)nn12,8.6,3.7,0.68,4.2,15,i,11
O=C(c1ccc(OCC2CCCO2)cc1)N1CCc2ccccc2C1 (stereo unspecified),8.8,1.8,0.71,3.8,-3,i,4
O=C1CCC(c2ccc3ccccc3c2)O1 (stereo unspecified),x,-0.9,0.69,-1.5,x,i,-3
CCOc1cc(/C=N/NC(N)=O)ccc1OCC(=O)Nc1ccc(C)c(C)c1,-0.8,x,x,-1.2,51,i,2
CN(C)CC#CCC(O)(c1ccccc1)c1ccccc1,-4.0,1.7,0.6,-7.3,4,i,-8
CCOC(=O)c1nc(-c2ccccc2)oc1N(C)C,-5.7,-59,0.71,-0.3,2,x,4
CCN(CC)S(=O)(=O)c1cccc(C(=O)N/N=C/c2ccc(N3CCOCC3)cc2)c1,1.1,x,x,-0.3,-12,i,-5
Cc1[nH]c2ccccc2c1CCNC(=O)c1ccc2c(c1[N+](=O)[O-])C(=O)c1ccccc1C2=O,-0.3,x,x,-0.4,2,x,11
COc1ccc(OCC(=O)Nc2cc(S(=O)(=O)N3CCCC3)ccc2Cl)cc1,x,-1.4,0.69,2.5,x,i,6
C[C@H](NC(=O)Nc1cccc(Br)c1)C(=O)O,-0.1,4.2,0.69,4.3,x,i,-5
O=C(NCc1ccc2c(c1)OCO2)c1ccc(NC(=O)C2CCCO2)cc1 (stereo unspecified),-2.6,1.1,0.65,0.0,-4,x,-5
CC(C)CCNC(=S)Nc1ccc2nc3n(c(=O)c2c1)CCCCC3,-6.4,5.2,0.66,-69,5,i,-25
COc1ccc(NC(=O)c2ccc3ccccc3n2)cc1S(=O)(=O)N1CCCCC1,2.5,2.6,0.72,-2.0,0,x,15
CC(C)COC(=O)NCCOC(=O)Nc1cccc(Cl)c1,-1.5,-0.3,0.65,2.6,-12,x,5
CCCCNC(=O)NNC(=O)c1cc(C)on1,1.8,3.1,0.71,3.1,15,i,5
CC(C)Oc1cccc(C(=O)C2CCCN(Cc3cccn3-c3ccccn3)C2)c1 (stereo unspecified),6.7,1.0,0.69,-0.9,x,i,-4
Cc1nc(N2CCC(C(N)=O)CC2)c2c(-c3cccs3)csc2n1,0.7,2.7,0.71,1.4,x,i,17
O=C(/C=C/c1ccc(OCc2c(F)cccc2Cl)cc1)N1CCOCC1,-0.8,1.9,0.67,1.1,-4,i,-11
COc1ccc(CNC(=O)CNC(=O)c2sc3ccccc3c2Cl)cc1OC,-2.5,1.7,0.72,0.2,-5,i,-5
C#CCOCCOCCOCCNc1nc(N2CCN(C(=O)[C@H](CCC(=O)O)n3cc(C(N)CO)nn3)CC2)nc(N2CCN(C(=O)[C@H](Cc3ccc(O)cc3)n3cc(C(N)CC(C)C)nn3)CC2)n1 (stereo partly specified),1.6,0.1,x,x,-6,x,x
CCC(=O)c1cc(F)c(N2CCN(S(=O)(=O)c3ccccc3)CC2)cc1C,-4.8,1.9,0.7,4.0,x,x,-4
c1ccc2c(c1)c1ccccc1n1c(-c3ccc4c(c3)OCO4)nnc21,-1.0,-4.1,0.69,-6.5,-2,x,1

# A portion of the library (hit frequency here may not be typical).
